RN4220 kill: S. aureus RN4220 growth inhibition; AID 1259311; OD600, 16 h; 0.33% of 330,000 active; inhibition, % (test concentration not listed);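 active = z-score of -3 or lower and OD600 up to 0.18 on both plates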;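 note: plate controls were untreated cells for no effect and reference antibiotic for full effect; stock transfer was 100 nL into about 80 µL; one replicate is shown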
BJeLR viability: BJeLR cell viability loss | BJeLR (HRASV12) viability, CellTiter-Glo ATP luminescence, 48 h; reference of the scale not given here | inhibition, % (no concentration beside the values) | 0.17% of 300,000 active;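 active = replicate mean above 50%; inconclusive = above 50% but judged a plate artefact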;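 note: 50 nL library stock added to about 25 µL; numbers are from one replicate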
Mtb hypoxia rep: reduces hypoxia-regulated biosensor signal in M. tuberculosis; AID 1159583; fluorescence inhibition, % (no concentration beside the values); M. tuberculosis hypoxia-regulated fluorescent reporter, fluorescence; 0.1% of 300,000 active;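 active = 35 to 45% if threefold the growth effect, above 45% if 1.5-fold the growth effect; inactive = the rest, general growth blockers included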;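 note: wells of about 50 µL received 100 nL stock; 0% = vehicle wells and 100% = reference inhibitor wells; whole bacteria with a GFP reporter of the hypoxia response; strong numbers were not always called active; many hits fall short of the cut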
Bead autofluor: flagged as autofluorescent in microsphere protease counterscreen | compound autofluorescence counterscreen, microsphere flow cytometry; stronger effect = higher value | fluorescence intensity (no concentration beside the values) | 3.1% of 360,000 active;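 active = at least 3 SD above the mean of all compounds, about 16000 in these data; inconclusive = too few beads counted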;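 note: 100 nL of 1 mM stock went into each well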
Sa ugtP lethal: growth inhibition of S. aureus ugtP deletion strain; AID 1259309; 0.54% of 330,000 active; growth inhibition, % (test concentration not listed); S. aureus RN4220 ugtP deletion, OD600 growth, 16 h; some inactives read as strong as hits;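 active = z-score under -3 and OD600 up to 0.15 on both plates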;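 note: plate controls were untreated wells for no effect and antibiotic for full effect; wells of about 80 µL received 100 nL stock; the first replicate is given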
PrP 5UTR inh: inhibition of PrP 5' UTR reporter expression; cell-based PrP 5' UTR mRNA reporter, plate reader; inhibition, % (no concentration beside the values); 0.35% of 340,000 active;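 active = every replicate at 50% or more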;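 note: 0 = median of the neutral control wells; tested in H4 reporter cells; numbers are from one replicate; inactives centre near -14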
Mtb hypoxia rep growth: further read-out of Mtb hypoxia rep, marked with its call; growth inhibition, %; measured here: M. tuberculosis growth (absorbance);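 0% = vehicle and 100% = reference antibiotic; read after six days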
Active calls of the source: *; ? = inconclusive; · = no result given.

Molecule | RN4220 kill | BJeLR viability | Mtb hypoxia rep | Mtb hypoxia rep growth | Bead autofluor | Sa ugtP lethal | PrP 5UTR inh
CC(C)CCN1C(=O)c2ccc(C(=O)Nc3ccccc3C(=O)O)cc2C1=O | 17 | 8 | 4 | 2 | 3761 | 11 | -5
O=C(NC1CCCCC1)C1CC(=O)N(c2ccc(Cl)cc2)C1 (stereo not drawn) | 0.2 | -2 | · | · | 6136 | -3 | -1
COCCCNC(=O)C1CC(=O)N(c2ccc(C)cc2)C1 (stereo not drawn) | 1.5 | 9 | 5 | 2 | 10044 | -2 | -33
Cc1ccc(-c2cc(C(=O)NCc3cccs3)no2)cc1 | 2.3 | 17 | 8 | 2 | 5932 | 5 | -29
Cc1c(C(=O)N2CCCc3ccccc32)oc2ccc(S(=O)(=O)N3CCOCC3)cc12 | 0.2 | 12 | 1 | 0 | 16777* | -13 | 12
O=C(COC(=O)CCC(=O)c1ccc(Cl)cc1)NCC1CCCO1 (stereo not drawn) | -7.7 | 5 | 10 | 11 | 3094 | -10 | -7
Cc1c(C)n(CCc2c[nH]c3ccccc23)ccc1=O | 3.2 | -22 | -7 | -3 | 3841 | 2 | -4
COC(=O)NN=Cc1cc(Br)ccc1O | 7.1 | · | 5 | -2 | · | -1 | ·
Cc1[nH]c2ccccc2c1N=Nc1c(C)n(C)n(-c2ccccc2)c1=O | 2.6 | 2 | 5 | 12 | 4142 | 4 | -24
CCn1c(C(O)c2ccccc2)nc2ccccc21 (stereo not drawn) | 2.5 | -5 | 7 | 9 | 10796 | -3 | -25
CCc1cccc(NS(=O)(=O)c2c(C)n[nH]c2C)c1 | 3.0 | -1 | · | · | ? | 4 | -1
CC(C)(C)n1nc2c(c1NC(=O)COc1ccc(Cl)cc1)CS(=O)(=O)C2 | 4.5 | 2 | 5 | 3 | 4317 | 5 | -10
Cc1ccc(C2=NN(CC(=O)NCCN(C)C)C(=O)CC2)cc1 | 3.3 | 13 | 7 | 7 | 3032 | 9 | -17
NS(=O)(=O)c1ccc(S(=O)(=O)c2ccccc2)nc1 | 6.0 | -10 | -17 | -25 | 5594 | 12 | ·
NS(=O)(=O)c1ccc(N/N=C/c2ccc(C(=O)O)cc2)c([N+](=O)[O-])c1 | · | -12 | · | · | 4318 | · | -3
CCCOc1ccc(CC(CC(=O)O)(C(=O)O)C(=O)O)cc1 | 9.2 | 8 | 15 | 11 | 3332 | 1 | -6
O=C(NCc1ccncc1)c1cccc(F)c1 | 0.8 | 1 | 1 | 5 | 11058 | 3 | ·
COC(=O)C1=NNC2(c3ccc(C)cc3)C(=O)N(c3ccc(C)cc3)C(=O)C12 (stereo not drawn) | 15 | -5 | 2 | -3 | 3277 | 5 | -13
CCOc1cc(N2CCOCC2)c(OCC)cc1NC(=O)CN1C(=O)NC2(CCCCCCC2)C1=O | -4.6 | -1 | 12 | 13 | 4336 | 2 | -18
CCOc1cccc(OCCOc2ccc(C(=O)c3ccccc3)cc2)c1 | 3.2 | -4 | 11 | 16 | 2120 | 4 | -9
Cc1cc(C)c2cc(C#N)c(SCC(=O)Nc3ccc4c(c3)OCO4)nc2c1 | 7.4 | -4 | 11 | 4 | 6347 | -9 | -16
Cc1ccc(NC(=O)Cn2cccc2)c(C)c1 | -1.5 | -7 | 1 | 3 | 4255 | 8 | -17
CC(OC(=O)c1cc(=O)[nH]c2ccccc12)C(=O)NC1CCCCC1C (stereo not drawn) | 0.4 | 3 | 2 | -1 | 4228 | 1 | -9
Cc1ccc(-c2nc(CSCC(=O)N3CCN(C(=O)c4ccco4)CC3)c(C)o2)cc1 | 4.2 | -9 | · | · | 5688 | 8 | -25
O=C(NCc1cccnc1)C(=O)Nc1nc(-c2ccccc2)cs1 | 7.6 | 3 | 0 | 0 | 4450 | -7 | -27
O=C(Nc1ccc(Br)cc1)c1ccco1 | 0.9 | 8 | 10 | -1 | 8047 | 18 | -69
C/C(=N\S(=O)(=O)c1ccc(C)cc1)N(C)C | · | 6 | · | · | 4644 | · | 9
COc1ccc(C(=O)N=S2CCN(C(=O)c3ccc(Cl)cc3)CC2)cc1 | -3.2 | -8 | 2 | 14 | · | 8 | ·
CC(C)CC(C(=O)O)N(Cc1ccccc1)Cc1ccccc1 (stereo not drawn) | 11 | -1 | · | · | 2816 | -12 | -3
Cn1c(SCCN2CCCC2)nnc1C1CCN(S(=O)(=O)c2ccc(F)cc2)CC1 | 3.2 | -4 | -5 | 7 | 3660 | 7 | -17

Remaining list, next part
Molecule | RN4220 kill | BJeLR viability | Mtb hypoxia rep | Mtb hypoxia rep growth | Bead autofluor | Sa ugtP lethal | PrP 5UTR inh
Cc1ccc2nc(SCC(=O)Nc3cccc(F)c3)nc(=O)n2c1 | · | 0 | · | · | ? | · | -24
C/C(N)=C(/C#N)C(=O)COC(=O)Cc1coc2cc(C)ccc12 | 10 | -4 | 7 | -4 | 4482 | 8 | -16
COc1ccc(C(OC(=O)c2cccs2)C(=O)NCC2CCCO2)cc1 (stereo not drawn) | -0.6 | 12 | 5 | 6 | 11217 | -3 | -14
COc1ccc(-c2cc(C(F)(F)F)c3c(=O)n(-c4ccccc4)[nH]c3n2)cc1 | 57 | -5 | -20 | 15 | 11025 | 60 | 0
O=C(CN(C(=O)CNS(=O)(=O)c1ccccc1)C1CCCC1)NCc1ccco1 | -2.0 | -1 | · | · | 2550 | 5 | -18
CC(=O)c1ccc(OCc2cc(C(=O)N3CCC(Oc4ccccc4C)CC3)no2)cc1 | 3.9 | 6 | 1 | 14 | 5997 | -11 | -45
C=C(C)CN=c1scc(C)n1/N=C/c1ccco1 | · | -7 | · | · | 4459 | · | 5
Cc1ccc(C(=O)Nc2cccc(C(=O)NC3CCCCC3)c2)cc1 | -1.4 | 15 | 0 | 0 | 6352 | -3 | -35
CC(C1CCN(Cc2nc(C3CC3)no2)CC1)N1CCOCC1 (stereo not drawn) | 1.9 | 12 | 13 | 11 | 3476 | 2 | -14
O=C(CNC(=O)c1cccs1)NCCN1CCN(c2ccccc2F)CC1 | 3.0 | -3 | 8 | 11 | 6210 | 9 | -20
COc1ccc(N2C(=O)c3cccc4cccc(c34)C2=O)nn1 | 4.6 | -2 | 3 | 4 | 7629 | 10 | ·
O=C(O)/C=C/C(=O)NNC(=O)c1cccc(Br)c1 | 4.8 | -6 | 2 | 3 | 2964 | 1 | -18
O=C1CC(c2ccc(O)c(O)c2)Oc2c1ccc(O)c2O (stereo not drawn) | 6.2 | · | · | · | 4990 | -4 | -1
CN(Cc1ccccc1)C(=O)c1ccc2c(c1)OCCO2 | 2.4 | 6 | 10 | 9 | 3207 | -1 | -15
CC(=O)c1ccc(N2CCN(C(=O)C(=O)c3c(C)[nH]c4ccccc34)CC2)cc1 | 14 | 0 | -2 | -2 | 5617 | 11 | -27
COc1cccc2cc(C(=O)Nc3ccccc3Cl)/c(=N/NS(=O)(=O)c3ccccc3)oc12 | · | 0 | · | · | 5220 | · | -6
NC(=O)C1(NC(=O)[C@@H]2CC3(CC(c4cccc(NC(=O)[C@@H]5CCC(=O)N5)c4)=NO3)CN2C(=O)Cc2ccc(C(F)(F)F)cc2)CC1 (stereo partly drawn) | -5.9 | -7 | 2 | -7 | 2957 | 2 | 5
COc1ccc(/C=C(/NC(=O)c2ccccc2)C(=O)N2CCCC2)cc1 | 4.4 | -2 | -14 | -2 | 3605 | 2 | -8
CN(C)CCCOC1C(C(O)CO)OC2OC(C)(C)OC21 (stereo not drawn) | 2.9 | · | -3 | 3 | · | 1 | ·
CCCC(C)NC(=O)CN1C(=O)NC2(CCc3ccccc32)C1=O (stereo not drawn) | 0.7 | -9 | 9 | 10 | ? | -3 | -16
COc1ccc(Nc2nc3ccccc3s2)cc1 | 0.5 | -3 | 3 | 9 | 4644 | -7 | -66
O=c1c2ccccc2oc2cc(-c3ccc4[nH]ccc4c3)ccc12 | 88* | 6 | 11 | -3 | 3646 | 88* | 3
O=C1c2ccccc2C(=O)N1C1CCCCC1 | -1.0 | -7 | 9 | 8 | 3825 | 5 | -11
O=C(c1ccc2ccccc2c1)N1CCN(c2ccccc2)CC1 | 2.7 | · | 1 | 10 | 19676* | 2 | -18
Cc1ccc(OCc2cc(C(=O)NCC(C)(C)N3CCOCC3)no2)cc1C | 1.0 | 3 | 3 | 18 | ? | -3 | -59
CC(C)CN(C(=O)COC(=O)c1cc2ccccc2oc1=O)C1CCS(=O)(=O)C1 (stereo not drawn) | 3.1 | 6 | 12 | 0 | · | -2 | ·
O=C(O)c1cc(S(=O)(=O)N2CCCC2)ccc1Br | 1.8 | 1 | 7 | 12 | 11463 | 1 | -12
COc1ccc(/C=C/C(=O)NCC(=O)N/N=C/c2cccnc2)cc1 | · | -4 | · | · | 4078 | · | -26
CCN1CCN(Cc2ccc(NC(=O)c3ccc(C)c(NC(=O)c4cncc(-c5cccs5)c4)c3)cc2C(F)(F)F)CC1 | -6.1 | · | 4 | 16 | 3577 | -8 | 61*
COc1ccccc1NC(=O)CS(=O)(=O)c1cn(CC(=O)N2CCOCC2)c2ccccc12 | 4.0 | 8 | 10 | -1 | 4133 | -2 | -20

Additional compounds follow:
Molecule | RN4220 kill | BJeLR viability | Mtb hypoxia rep | Mtb hypoxia rep growth | Bead autofluor | Sa ugtP lethal | PrP 5UTR inh
CN(NC(=O)c1cccc(Cl)c1)c1nc(-c2ccccc2)nnc1C(F)(F)F | 1.1 | -3 | · | · | 2128 | -9 | -14
COc1ccccc1-c1noc(-c2ccccc2C(=O)Nc2ccccc2)n1 | 3.4 | -5 | · | · | 4282 | 7 | -14
CCC(C)Nc1nc2c(c(=O)[nH]c(=O)n2C)n1CCCc1ccccc1 (stereo not drawn) | · | -5 | · | · | 3186 | · | -18
C=C(C)c1cccc(C(C)(C)NC(=O)NCCCN2CCCC2=O)c1 | 4.0 | 7 | -4 | 6 | 6885 | 1 | -13
O=C(COc1ccc(-n2cnnn2)cc1)Nc1ccc(F)c(F)c1F | 1.5 | · | -7 | 2 | ? | 3 | ·
O=C(CCN1C(=O)C2CC=C(Cl)CC2C1=O)NCc1ccco1 (stereo not drawn) | -3.2 | 5 | · | · | 3672 | 3 | -21
Clc1ccc(CSc2ncccn2)cc1 | 0.0 | -1 | -5 | -3 | 6259 | 1 | -32
COc1ccc(CN2C3CCC2CC(NC(=O)c2cc(OC)c(OC)c(OC)c2)C3)cc1 (stereo not drawn) | 0.4 | -5 | -5 | -5 | · | 6 | -10
S=C(Nc1ccc(Cl)c(Cl)c1)N1CCOCC1 | 2.1 | 6 | 1 | 9 | 2513 | -5 | -10
Cc1nc(Sc2nnnn2-c2ccccc2)c(C#N)c(C)c1C | 5.4 | 10 | 9 | 2 | 5139 | 5 | -23
Cc1cc(OC(=O)c2ccc(S(=O)(=O)N(C)C)cc2)c([N+](=O)[O-])c(=O)[nH]1 | 3.1 | 7 | 5 | 2 | 2256 | 4 | -6
COC(=O)c1ccc(S(=O)(=O)NCCSc2nnc3c4ccccc4n(C)c3n2)cc1 | 3.4 | 10 | 11 | -6 | 23909* | 6 | -7
C=CCNC(=O)N1c2ccccc2Sc2ccccc21 | 1.0 | 4 | 14 | 4 | 3489 | -4 | -6
c1ccc(C(Cc2nc(-c3ccccn3)no2)c2ccccc2)cc1 | -1.5 | 1 | 5 | 0 | 3182 | -6 | -5
COc1ccc(/C=N/N2C(=O)c3ccccc3C2=O)cc1 | · | 30 | · | · | 2400 | · | -4
COc1ccc(OS(=O)(=O)c2c(C)noc2C)cc1 | 6.5 | -9 | 13 | 6 | 3951 | -2 | -11
COc1cccc(OCc2nnc(SCC(=O)OC3CCCCC3)n2C)c1 | 5.0 | 1 | -6 | 10 | 9717 | -10 | -20

Entries from the list above that contain bromine:
Molecule | RN4220 kill | BJeLR viability | Mtb hypoxia rep | Mtb hypoxia rep growth | Bead autofluor | Sa ugtP lethal | PrP 5UTR inh
COC(=O)NN=Cc1cc(Br)ccc1O | 7.1 | · | 5 | -2 | · | -1 | ·
O=C(Nc1ccc(Br)cc1)c1ccco1 | 0.9 | 8 | 10 | -1 | 8047 | 18 | -69
O=C(O)/C=C/C(=O)NNC(=O)c1cccc(Br)c1 | 4.8 | -6 | 2 | 3 | 2964 | 1 | -18
O=C(O)c1cc(S(=O)(=O)N2CCCC2)ccc1Br | 1.8 | 1 | 7 | 12 | 11463 | 1 | -12
